TRPML1 ag: activates the human TRPML1 channel | Q9GZU1 | TRPML1-expressing cells, Ca2+ dye fluorescence, FDSS; host cell line not named in the record; reference of the full effect not given here | activation, % (no concentration beside the values) | hit rate 0.12% among 410,000 | AID 624414; in the data active = activation above about 50%; inconclusive = about 30% to 50%; inactive = below about 30%; further: 0% is about no effect; the text of the record puts the active cut at 80%
Target sequence (Q9GZU1 whole entry, looked up): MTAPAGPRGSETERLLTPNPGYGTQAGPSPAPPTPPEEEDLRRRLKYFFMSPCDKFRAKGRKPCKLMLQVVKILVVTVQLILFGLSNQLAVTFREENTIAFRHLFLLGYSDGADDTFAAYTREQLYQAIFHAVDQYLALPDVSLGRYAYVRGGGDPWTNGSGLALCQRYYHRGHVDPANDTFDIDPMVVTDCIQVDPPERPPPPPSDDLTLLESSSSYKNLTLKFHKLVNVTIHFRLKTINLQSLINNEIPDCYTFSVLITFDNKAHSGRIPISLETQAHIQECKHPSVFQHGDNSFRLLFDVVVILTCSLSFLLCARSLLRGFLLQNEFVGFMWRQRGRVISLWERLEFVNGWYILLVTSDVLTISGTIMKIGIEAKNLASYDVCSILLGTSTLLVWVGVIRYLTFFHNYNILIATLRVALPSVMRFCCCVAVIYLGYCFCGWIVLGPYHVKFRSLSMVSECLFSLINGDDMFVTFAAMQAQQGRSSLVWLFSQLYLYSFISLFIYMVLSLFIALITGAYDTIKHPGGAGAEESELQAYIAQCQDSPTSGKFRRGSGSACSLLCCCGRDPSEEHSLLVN
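Tet-induced TRPML1-DL cells, 1,500 per well, cultured overnight, were loaded with a no-wash Ca2+ dye for 45–90 min. Calcium fluorescence was recorded on the FDSS for 110 s after compound addition, before the EC80 agonist (4 uM 54-4) was added.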
ClpP mod: qHTS Assay for Activators of ClpP; ATP-dependent Clp protease proteolytic subunit (Bacillus subtilis (strain 168)), P80244; purified B. subtilis ClpP, FRET peptide cleavage, 20 min; Potency, µM (series often up to 57.5 µM), for inactives: at the top dose activity change, negative = active; hit rate 1.9% among 340,000; active = well fitted falling curve with a large enough effect; inconclusive = small, poorly fitted or top-dose-only effect; inactive = no such curve, though single readings can be large or run the other way; further: potency means the concentration at half of the fitted maximal effect; the source files actives as falling curves though it sought activators and does not explain the sign; nearly all actives have a fitted effect of over 65% in size; many hits overshoot -100%
Target sequence (P80244 whole entry, looked up): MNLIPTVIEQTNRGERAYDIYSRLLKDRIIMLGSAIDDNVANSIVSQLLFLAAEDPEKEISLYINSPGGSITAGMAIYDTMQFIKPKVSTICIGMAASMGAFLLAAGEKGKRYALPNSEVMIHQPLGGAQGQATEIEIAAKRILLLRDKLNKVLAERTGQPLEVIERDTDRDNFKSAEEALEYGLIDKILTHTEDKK
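ClpP 10 microg/mL final, pH 8 Tris/KCl buffer with BSA, glycerol, Tween-20; compound pinned in; FRET-FV substrate; RT 20 min; Ex320/Em430; ΔFRET vs ADEP 5.8 microM, DMSO, no enzyme.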
gsp agonist: activates gsp, the McCune-Albright syndrome mutation. hit rate 0.13% among 340,000. Potency, µM (titrated, usually from 76.9 µM), for inactives: at the highest dose activation (cAMP increase), actives largely listed as activators. gsp mutant cells, cAMP HTRF, 30 min; control for the full effect not named in the record; active = well fitted activation curve with a large enough effect; inconclusive = small, poorly fitted or top-dose-only effect, or another doubt; inactive = no such curve, though single readings can be large or run the other way; cell line not stated here;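 further: phosphodiesterase inhibitor Ro 20-1724 added with compounds to block cAMP breakdown; potency means the concentration at half of the fitted maximal effect; nearly all actives have a fitted effect of over 60% in size; about a fifth of the inactives were tested at one dose only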
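Cells in DMEM/10% FBS with G418 were pretreated with compounds in DMSO plus […] (300 uM stock) for 30 min at 37C. cAMP was measured by HTRF (cAMP-d2 plus anti-cAMP antibody-K) after 30 min at room temperature.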
TRPML1 inh: human mucolipin-1 channel inhibition. TRPML1-inducible cells, Ca2+ dye fluorescence, FDSS; stronger effect = lower value; inhibition of EC80 agonist-evoked calcium signal. activity change, negative = inhibition, % (test concentration not listed). hit rate 0.02% among 390,000. AID 624415; in the data active means activity change below about -50%; inconclusive means about -30% to -50%; inactive means above about -30%;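 further: stimulus is agonist 54-4 at its EC80 concentration; on the % scale 0 is the no-effect control and ±100 the full control effect; compound concentration not given in the record; the text of the record puts the active cut at -80%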
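TRPML1-DL cells, Tet-induced overnight (~16 h, 37 °C) at 1,500 cells/well, were loaded with Ca8 no-wash dye plus quencher for 45-90 min at room temperature. Compounds were pinned during FDSS kinetic reading; agonist 54-4 at EC80 (4 uM final) then added.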
gsp antagonist: gsp mutant antagonism. gsp-mutant cells, cAMP HTRF, 30 min; control for the full effect not named in the record. hit rate 0.4% among 340,000. AID 624288. Potency, µM (doses to about 76.9 µM), without a hit: at the top dose activity change, negative = inhibition, actives largely listed as inhibitors; active = falling curve of any shape with a large fitted effect; inconclusive = falling curve, mostly with a smaller effect; inactive = flat or rising curve; cell line not stated here;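 further: intracellular cAMP measured with PDE inhibitor Ro 20-1724 present during compound exposure; potency means the concentration at half of the fitted maximal effect; on the % scale 0 is the no-effect control and ±100 the full control effect; nearly all actives have a fitted effect of over 65% in size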
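G418-selected cells were plated in DMEM/10% FBS for 16-24 h at 37C, then treated with compounds plus the PDE inhibitor […] (300 uM solution added) for 30 min at 37C. Intracellular cAMP was measured by HTRF after 30 min lysis at room temperature.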
Menin MLL FP FL: menin-MLL binding inhibition, fluorescein peptide; Fluorescence polarization, fluorescein-MLL peptide displacement from menin; FP activity change, % at 61.4 µM; 290,000 tested, under 10 active; inconclusive = falling polarisation curve, or a change in total fluorescence; inactive = total fluorescence flat and polarisation flat or rising; no compound was filed as active; the % refers to the polarisation; negative = inhibition;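 further: % of control where 0% means no effect; inhibitors lower the polarisation; unlabelled MLL peptide was the positive control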
An asterisk follows results filed as active; ? = inconclusive; . = not tested or not shown; & = joins results of further samples; [ ] = dose if it differs, or a comment.

SMILES	TRPML1 ag	ClpP mod	gsp agonist	TRPML1 inh	gsp antagonist	Menin MLL FP FL
Cc1noc(C)c1CSc1nnc2ccccn12	3.0	?	-36%[inhibitor]	-14	2%	9.5
O=C(CSC1=NCCS1)NC(NC(=O)CSC1=NCCS1)c1ccccc1	-0.5	.	5%	15	2%	2.5
O=C(Nc1ccccc1)O/N=C/c1ccccc1Cl	0.6	-5.4%	17%	9	1%	2.3
CCCc1cc(=O)n2nc(N3CCC(C(=O)NCc4ccco4)CC3)sc2n1	0.5	0.5%	21%	-5	-2%	.
O=C(Nc1ccc2oc(-c3ccc4ccccc4c3)nc2c1)c1cccc(Cl)c1Cl	-0.4	4.2%	.	8	.	.
O=C(NCc1ccccc1)c1cc2ccccc2oc1=O	0.8	-11%	25%	10	-2%	-2.3
O=C1NC(Cc2ccccc2)c2nc3cc(F)ccc3c(=O)n2-c2cc3ccccc3cc21 (centres undefined)	0.8	?	?	-7	.	.
Cc1ccc(NC(=O)C(C)OC(=O)Cn2[nH]c(=O)c3ccccc3c2=O)cc1 (centres undefined)	6.6	-2.0%	4%[15.4 µM]	-2	5%	.
O=C(NCCCc1nc2ccccc2n1Cc1ccccc1)C1CCCCC1	0.4	0.6%	.	22	.	.
O=C(COc1ccc2ccccc2c1)N1CCN(C(=O)c2cccs2)CC1	-1.1	0.4%	?	4	-10%	0.6
COc1ccccc1-c1cc(C(=O)Nc2cc(OC)c(OC)c(OC)c2)no1	1.3	-1.0%	.	26	.	.
CC(C)c1nc2oc3c(N4CCN(C)CC4)ncnc3c2c2c1CCC2	-0.5	-14%	14%	-2	-12%	2.5
O=C(COC(=O)c1nc(Cl)ccc1Cl)NNC(=O)c1ccccc1	-0.5	1.1%	-30%[inhibitor]	11	11%	.
Cc1cc(OCC(=O)Nc2ccncc2)cc(C)c1Cl	0.1	-0.2%	11%	38	-24%	0.1
COc1ccccc1CC(=O)Nc1ccc2c(C)cc(=O)oc2c1	-0.9	4.7%	-3%	-11	6%	-2.1
CCOC(=O)CSc1nnc(NCC(=O)OC(C)C)c(=O)[nH]1	-0.2	6.0%	9%	-2	-1%	2.0
O=C1C2C3C=CC(C3)C2C(=O)N1CNc1ccccc1 (centres undefined)	-0.9	0.6%	-47%[inhibitor]	9	9%	0.4
COc1ccc(-n2nnnc2SCC(=O)Nc2cccc(C)n2)cc1OC	0.9	-2.5%	6%	4	?	4.9
CCN(C(=O)CSc1nccc(=O)[nH]1)c1cccc2ccccc12	-0.2	0.4%	-11%	-4	-16%	.
CCOc1ccc(CNc2ccc(CNc3ncn[nH]3)cc2)cc1	1.3	1.8%	-58%[inhibitor]	-13	17%	0.4

Part of the list above, in CSV form:
Molecule,TRPML1 ag,ClpP mod,gsp agonist,TRPML1 inh,gsp antagonist,Menin MLL FP FL
O=C(COC(=O)c1nc(Cl)ccc1Cl)NNC(=O)c1ccccc1,-0.5,1.1%,-30%[inhibitor],11,11%,.
Cc1cc(OCC(=O)Nc2ccncc2)cc(C)c1Cl,0.1,-0.2%,11%,38,-24%,0.1
COc1ccccc1CC(=O)Nc1ccc2c(C)cc(=O)oc2c1,-0.9,4.7%,-3%,-11,6%,-2.1

New compounds follow
SMILES	TRPML1 ag	ClpP mod	gsp agonist	TRPML1 inh	gsp antagonist	Menin MLL FP FL
CN(C)c1ccc(-c2c(-c3ccc4c(c3)OCO4)noc2-c2ccsc2)cn1	0.2&0.5	-26%	.	-20	-14%	-3.2
COc1ccc(NC(=O)CN(c2ccc(C)cc2)S(=O)(=O)c2c(C)nn(C)c2C)cc1OC	-1.2	2.1%	-9%	-4	7%	0.0
COc1ccc(CN2CCN(c3cc(C)nc4c5c(C)cc(C)nc5nn34)CC2)cc1F	-0.6	11µM*	-35%[inhibitor]	-13	34%[activator]	-7.3
Cc1nn(CC(=O)O)c(=O)c2ccccc12	0.0	-7.3%	-4%	4	4%	-1.0
COc1ccc(C(=O)Nc2ccc3ccccc3n2)cc1OC	.	-5.2%	25%	.	-16%	-3.8
COc1ccc(CNC(=O)Cn2nc(C(F)(F)F)cc2C)cc1	0.3	0.0%	33%	6	6%	-7.4
COc1cc(/C(O)=C(\C#N)c2nc3ccccc3[nH]2)cc(OC)c1OC	-0.2	4.6%	0%	-3	6%	9.1
COc1ccc(C(=O)N[C@H](C(=O)NC2CCCCC2)C(C)C)cc1	0.7	2.1%	?	13	20%	.
Cc1nn(S(=O)(=O)c2ccc(F)cc2)c(C)c1S(=O)(=O)N1CCCCCC1	0.2	-0.5%	.	17	.	.
Cc1cccc(NC(=O)NCc2ccc3[nH]c(C)cc3c2)c1	-0.6	-2.5%	-69%[inhibitor]	6	9%	1.5
COc1ccc(NC(=S)Nc2ccc(S(N)(=O)=O)cc2)c(C)c1	0.8	.	-9%	-5	8%	3.2
Cc1cc(C)cc(OCC(=O)Nc2nc(-c3ccc(F)cc3)ns2)c1	1.3	-0.1%	.	-29	.	.
COc1ccc(-c2cc(C(F)F)n3ncc(C(=O)Nc4cccc(S(=O)(=O)N5CCOCC5)c4)c3n2)cc1	-0.5	.	-7%[15.4 µM]	0	-8%	-5.9
CCOC(=O)C(NC(C)=O)(NC(C)C)C(F)(F)F (centres undefined)	-0.5	-0.7%	?	31	-2%	5.2
Cc1onc(-c2ccccc2Cl)c1C(=O)OCn1nnc2ccccc2c1=O	0.5	-1.0%	-62%[inhibitor]	2	-17%	3.5
CC(=O)N1C(=O)NC2=C(C(=O)CCC2)C1c1cccc([N+](=O)[O-])c1 (centres undefined)	0.1	.	32%	4	-2%	-3.3
COc1nc(-c2ccccc2)ccc1-c1noc(COc2ccccc2)n1	2.6	10µM*	0%	-12	-5%	6.2
N#CCCN1CCC(NC(=O)OCc2ccccc2)CCC1=O (centres undefined)	-0.3&-0.8	-3.3%&2.5%	.	-4	5%	-0.7
N#CCCn1cc(C(=O)CN2C(=O)NC3(CCc4ccccc43)C2=O)c2ccccc21 (centres undefined)	0.2	-1.1%	-16%	-11	.	.
Cc1ccc(SCC(=O)c2ccc[nH]2)cc1	3.0	.	2%[15.4 µM]	-12	11%	-8.8
CSc1ccc(S(=O)(=O)N2CCC(C(=O)NCc3ccccn3)CC2)cc1	-0.2	.	-8%	-8	4%	-0.8
CC(=O)c1cccc(NC(=O)C(OC(=O)/C=C/c2ccc3c(c2)OCO3)c2ccccc2)c1 (centres undefined)	-0.4	28µM*	-37%	8	-12%	3.3
Cc1c(Cl)cccc1NC(=O)Nc1cccnc1	1.2	-1.0%	3%	40	8%	1.6
CC(=O)Nc1ccc(NC(=O)CSc2nncn2C)cc1	0.3	.	-22%	2	-2%	1.7
CNc1ccc(N=Nc2cccc3ncccc23)cc1	6.3	-0.8%	-31%[inhibitor]	46	0%	.
N#Cc1ccccc1S(=O)(=O)N1CCN(C(=O)C2CCCCC2)CC1	-0.4	-0.9%	1%	-4	3%	.
CC(=O)c1cc2c(cc1N)OCO2	0.0	-3.3%	-1%	4	-5%	-3.7
Cc1ccc(C)c(NC(=S)NNC(=O)c2ccc(Br)o2)c1	1.7	-3.4%	-9%	-6	-4%	-1.2
CC(=O)c1c(C)nc(-c2ccccc2)nc1N	0.3	-1.6%	15%	-13	1%	-5.6
Cc1cc(C)c(NC(=O)CN2CCN3CCCC3C2)c(C)c1 (centres undefined)	0.0&-0.3	-3.7%&-1.8%	-6%&14%	-11&34	3%&11%	-6.3
CCN(CC)C(=O)CSC1=C(C#N)C(c2cccs2)C=C(C)N1 (centres undefined)	1.1	-19%	10%	7	-9%[15.4 µM]	0.3
CC(=O)OC(C(=O)NC1CCCCC1)c1ccc(Cl)c(Cl)c1 (centres undefined)	4.0	-1.4%	?	25	13%	-2.1
O=C1CSC(c2cccc(F)c2)N1c1ccccc1F (centres undefined)	2.1	-2.0%	-17%	-16	-19%	2.5
Cc1cc(C)c(S(=O)(=O)Nc2cccnc2)c(C)c1	-0.6	-0.6%	-30%[inhibitor]	-5	1%	5.1
C=CCOc1ccc2c(c1)CCC1C2CCC2(C)C(O)C(O)CC12 (centres undefined)	0.1	1.6%	-30%[15.4 µM]	60	-18%	.
Cn1c2c(c(=O)n(C)c1=O)C(CC(=O)Nc1ccc(F)cc1)C(=O)N2 (centres undefined)	0.0	.	1%[15.4 µM]	-11	.	-1.1
CCOc1ccc2nc(NC(=O)C(NS(=O)(=O)c3cccc4nsnc34)C(C)C)sc2c1 (centres undefined)	-1.3	-0.3%	2%	10	-12%	4.1
Cc1nn(CC#N)c(=O)n1-c1ccccc1	-0.2	1.0%	8%	4	11%	2.9
COc1cccc(-n2cnc3scc(-c4cccs4)c3c2=O)c1	2.0	-4.2%	15%	12	3%	0.6
CCCC[C@@H]1CN=C(N)N1CC(C)(C)C	-1.0	-0.7%	.	2	14%	.
COc1ccc(CCN2C(=O)c3[nH]nc(-c4ccccc4O)c3C2c2ccc(C)cc2)cc1OC (centres undefined)	1.2	-0.4%	-17%	25	-12%	5.2
CCCS(=O)(=O)c1nc(S(=O)(=O)c2ccc(C)cc2)c(NCc2ccco2)s1	0.1	1.1%	2%	14	0%	8.4
Cc1nn(C2CCS(=O)(=O)C2)c2nc(C3CC3)cc(C(=O)Nc3cccc(C#N)c3)c12 (centres undefined)	1.5	.	5%[15.4 µM]	-3	-14%	.
CCCCN(C)C1=CC2=CC(=C(C#N)C#N)CCC2CC1 (centres undefined)	125*	.	0%[15.4 µM]	-64*	?	?
CCc1ccc(NC(=O)Cn2c(=O)n(-c3cccc(OC)c3)c(=O)c3c(C)c(C(=O)N(C)C)sc32)cc1	0.4	0.1%	.	10	.	.
CN(C)S(=O)(=O)c1ccc(Cl)c(NC(=O)COC(=O)c2ccc(O)cc2)c1	0.2	.	-8%[15.4 µM]	10	.	-0.2
C#CCOc1nc(Nc2cccc([N+](=O)[O-])c2)nc(OCC#C)n1	3.7	.	2%	-26	4%	-0.9
Cc1cc(N2C(=O)C3CC=CC(C)C3C2=O)no1 (centres undefined)	-0.2	0.1%	6%	19	22%	0.4
CCOc1cc(/C=C(\C#N)C(=O)Nc2cccc(C(=O)O)c2)ccc1OCc1ccccc1Cl	5.1	-0.8%	-21%	13	?	-8.7
CCOc1ccc(/C=N/NC(=O)CNC(=O)c2ccc(S(=O)(=O)N3CCOCC3)cc2)cc1	-0.4	.	-19%	10	-7%	-2.6
CCN1CCC(O)(C(C(=O)O)c2ccccc2)CC1 (centres undefined)	0.6	-1.5%	-7%[15.4 µM]	-2	1%	.
Cc1ccc(CNC(=O)c2ccc(-n3cccc3)cc2)cc1	-0.5	.	23%	-4	-8%	3.1
Cc1c(C(=O)Nc2ccc3c(c2)OCCO3)sc2ncnc(N3CCCCC3C)c12 (centres undefined)	2.8	-1.2%	27%	20	?	-2.4

Screening data from PubChem.
